Vaccinia inh: blocks a specific stage of Vaccinia orthopoxvirus infection; AID 1053133; activity change (mCherry), % (test concentration not listed); hit rate 0.01% among 89,000; Vaccinia-infected cells, mCherry/Venus stage reporter fluorescence; active compounds read low; some inactives read as strong as hits;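 active = mCherry past -33% and 40 or more points under the early reporter, replicates agreeing; inconclusive = past -33% without that gap or agreement; tested in A549 cells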;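 note: scaled between vehicle wells and reference inhibitor wells; 23 nL library stock went into each well; one replicate is shown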
Vaccinia inh Venus: further read-out of Vaccinia inh, marked with its call; activity change (Venus), %; measured here: Venus reporter, other viral stage;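 negative = less Venus signal; first of two replicates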
* = called active by the depositor; ? = inconclusive; / = not tested or not shown. A portion of the library; count on the stated rates, not on these rows.

SMILES	Vaccinia inh	Vaccinia inh Venus
O=C(C[C@@H]1C[C@H]2c3cc(NC(=O)CC4CC4)ccc3O[C@H]2[C@H](CO)O1)NCc1cccnc1	9	12
O=C(N[C@@H]1CC[C@@H](CCNS(=O)(=O)c2ccc(F)cc2)O[C@@H]1CO)c1cccc(F)c1	-9	2
CO[C@@H](CN(C)S(=O)(=O)c1cccc(Cl)c1)[C@@H](C)CN([C@H](C)CO)S(=O)(=O)c1cccc(Cl)c1	?	/
O=C(NCCc1ccccc1)[C@H]1[C@H](CO)[C@H]2Cn3c(ccc(-c4ccccc4)c3=O)[C@@H]1N2	-5	-13
COCCNC(=O)C[C@H]1CC[C@H]2[C@@H](COC[C@H](O)CN2C(=O)Nc2ccccc2OC)O1	9	10
O=C(CC(F)(F)F)N1C[C@H]2[C@@H](c3ccccc31)[C@@H](CO)N2C(=O)CN1CCOCC1	11	10
COc1ccc(NC(=O)N2C[C@@H](O)COC[C@H]3O[C@@H](CC(=O)NCc4ccncn4)CC[C@@H]32)cc1	-1	3
C[C@H]1CN([C@@H](C)CO)C(=O)c2cc(NC(=O)Nc3ccc4c(c3)OCO4)ccc2O[C@@H]1CN(C)S(=O)(=O)c1cn(C)cn1	48	24
N#C[C@@H]1[C@H](c2ccc(-c3cccnc3)cc2)[C@H](CO)N1C(=O)C1CC1	-13	-10
COc1ccc2c3c(n(C)c2c1)[C@@H](CO)N(Cc1ccccc1OC)CC31CN(C)C1	-2	1
COc1ccccc1-c1cn(CC[C@@H]2CC[C@@H](NC(=O)C3CCC3)[C@@H](CO)O2)nn1	-5	11
C[C@H](CO)N1C[C@H](C)[C@H](CN(C)S(=O)(=O)c2cccs2)Oc2ncc(-c3ccc(F)cc3)cc2C1=O	-7	-7
CN1C(=O)c2cc(NC(=O)Nc3ccccc3F)ccc2OC[C@H]2O[C@H](CC(=O)NCc3ccc(-c4ccccc4)cc3)CC[C@H]21	-1	-3
COc1cccc(-c2ccc([C@@H]3[C@H](CO)N4C(=O)CN(C(=O)C5CCCC5)C[C@@H]34)cc2)c1	-12	-3
O=C(N[C@@H]1C[C@@H]2O[C@@H](CO)CC[C@@H]2O[C@@H]1CCc1ccc(C#Cc2ccccc2)cc1)c1ccccn1	?	/
CO[C@@H](CN(C)C(=O)Nc1ccc(Cl)cc1)[C@H](C)CN(Cc1ccccc1Cl)[C@@H](C)CO	-12	-3
CC(C)[C@H]1COCn2nncc2CC[C@@H](Cc2ccccc2)C(=O)N1	0	-1
COc1ccc(-c2ccc([C@H]3[C@H]4CN(C(=O)c5ccccn5)CC(=O)N4[C@H]3CO)cc2)cc1	2	-7
COCC(=O)N[C@H]1C=C[C@@H](CC(=O)NCc2ccccc2OC)O[C@H]1CO	12	7
COc1ccccc1-c1ccc2c(c1)O[C@@H](CN(C)S(=O)(=O)c1ccc(F)cc1)[C@@H](C)CN([C@@H](C)CO)S2(=O)=O	?	/
C[C@@H]1CN([C@@H](C)CO)C(=O)Cc2cc(NS(=O)(=O)c3ccccc3)ccc2O[C@@H]1CN(C)S(=O)(=O)c1ccccc1	12	11
C[C@@H]1CN([C@@H](C)CO)C(=O)c2cc(NS(=O)(=O)c3cn(C)cn3)ccc2O[C@@H](C)CCCCO[C@@H]1CN(C)S(=O)(=O)c1cccs1	22	19
COc1ccc(NC(=O)Nc2ccc3c(c2)[C@@H]2C[C@@H](CC(=O)NCc4ccc5c(c4)OCO5)O[C@@H](CO)[C@@H]2O3)cc1	20	19
COCC#Cc1cnc2c(c1)C(=O)N([C@@H](C)CO)C[C@@H](C)[C@H](CN(C)S(=O)(=O)c1ccccc1)O2	0	3
COCC(=O)N1[C@@H](CO)[C@@H]2c3ccccc3N(C(=O)Nc3ccccc3Cl)C[C@@H]21	10	8

Single entries from the list:
Reading of COc1ccc(NC(=O)N2C[C@@H](O)COC[C@H]3O[C@@H](CC(=O)NCc4ccncn4)CC[C@@H]32)cc1 under Vaccinia inh: -1
Reading of COc1ccc(-c2ccc([C@H]3[C@H]4CN(C(=O)c5ccccn5)CC(=O)N4[C@H]3CO)cc2)cc1 under Vaccinia inh: 2
Reading of N#C[C@@H]1[C@H](c2ccc(-c3cccnc3)cc2)[C@H](CO)N1C(=O)C1CC1 under Vaccinia inh: -13

In a second layout: 4 of the compounds above
C[C@@H]1CN([C@@H](C)CO)C(=O)Cc2cc(NS(=O)(=O)c3ccccc3)ccc2O[C@@H]1CN(C)S(=O)(=O)c1ccccc1
  Vaccinia inh: 12; Vaccinia inh Venus: 11

C[C@@H]1CN([C@@H](C)CO)C(=O)c2cc(NS(=O)(=O)c3cn(C)cn3)ccc2O[C@@H](C)CCCCO[C@@H]1CN(C)S(=O)(=O)c1cccs1
  Vaccinia inh: 22; Vaccinia inh Venus: 19

COc1ccc(NC(=O)Nc2ccc3c(c2)[C@@H]2C[C@@H](CC(=O)NCc4ccc5c(c4)OCO5)O[C@@H](CO)[C@@H]2O3)cc1
  Vaccinia inh: 20; Vaccinia inh Venus: 19

COCC#Cc1cnc2c(c1)C(=O)N([C@@H](C)CO)C[C@@H](C)[C@H](CN(C)S(=O)(=O)c1ccccc1)O2
  Vaccinia inh: 0; Vaccinia inh Venus: 3

(next part)
SMILES	Vaccinia inh	Vaccinia inh Venus
COC(=O)C[C@@H]1C[C@@H]2c3cc(NC(=O)NC4CCCC4)ccc3O[C@@H]2[C@@H](CO)O1	1	10
COc1ccc2c3c(n(C)c2c1)[C@@H](CO)N(C(=O)Nc1ccc(F)cc1)CC31CCN(S(=O)(=O)c2cn(C)cn2)CC1	7	-2
Cc1noc(C)c1NC(=O)Nc1ccc2c(c1)C(=O)N([C@H](C)CO)C[C@H](C)[C@H](CN(C)Cc1ccccc1)O2	0	0
C[C@@H]1CN([C@@H](C)CO)C(=O)c2cc(NS(=O)(=O)c3ccc(F)cc3)ccc2O[C@@H](C)CCCCO[C@H]1CN(C)S(=O)(=O)c1ccc(Cl)cc1	-8	1
CCCN(C)C[C@@H]1OCCCC[C@@H](C)Oc2ccc(NC(=O)Nc3ccc(F)cc3)cc2C(=O)N([C@H](C)CO)C[C@@H]1C	-8	-6
COCCNC(=O)C[C@@H]1CC[C@@H]2[C@H](COc3ccc(NC(=O)C4CCOCC4)cc3C(=O)N2C)O1	9	7
NC(=O)[C@H]1[C@@H]2C(=O)O[C@@H](c3ccccc3)[C@@H](c3ccccc3)N2[C@@H](c2ccc(O)cc2)[C@]12C(=O)Nc1ccc(C#CCCO)cc12	13	9
CNC[C@H]1Oc2ccc(NC(=O)NC(C)C)cc2CC(=O)N([C@@H](C)CO)C[C@H]1C	4	-2
C[C@@H]1CN([C@H](C)CO)C(=O)c2cc(NS(=O)(=O)c3ccccc3)ccc2O[C@@H](C)CCCCO[C@@H]1CN(C)C(=O)CCC(F)(F)F	9	3
CO[C@H]1CN(C)C(=O)c2ccc(NS(=O)(=O)CC(F)(F)F)cc2OC[C@@H](C)N(CC2CCCCC2)C[C@H]1C	2	9
COCC(=O)Nc1ccc2c(c1)OC[C@@H](C)N(Cc1ccncc1)C[C@H](C)[C@H](OC)CN(C)C2=O	0	-2
C[C@@H]1CCCCO[C@H](CN(C)C(=O)Nc2ccc(F)cc2)[C@H](C)CN([C@H](C)CO)C(=O)c2cc(NC(=O)Nc3ccc(C(F)(F)F)cc3)ccc2O1	3	7
CCCNC(=O)N(C)C[C@@H]1Oc2ncc(C#CC3(O)CCCC3)cc2C(=O)N([C@H](C)CO)C[C@H]1C	8	13
C[C@@H]1CN([C@H](C)CO)C(=O)c2cccc(NC(=O)c3cnccn3)c2O[C@H]1CN(C)Cc1ccc(Cl)c(Cl)c1	-30	-21
CNC(=O)C[C@H]1CC[C@H]2[C@@H](COc3ccc(NC(=O)c4ccccc4Cl)cc3C(=O)N2C)O1	12	10
CCCNC(=O)N[C@H]1CC[C@H](CCn2cc(-c3cccc(F)c3)nn2)O[C@@H]1CO	-15	-11
O=C(NC1CC1)C1=C[C@@H](c2ccc3c(c2)OCO3)C[C@@H](OCc2ccc(CO)cc2)O1	10	-4
CNC[C@H]1Oc2ccc(NC(=O)CCC(F)(F)F)cc2CC(=O)N([C@H](C)CO)C[C@@H]1C	1	-4
C[C@H]1CN([C@@H](C)CO)S(=O)(=O)c2ccc(C#Cc3ccc(F)cc3)cc2O[C@H]1CN(C)C(=O)c1ccccn1	?	/
Cc1noc(C)c1NC(=O)Nc1ccc2c(c1)CC(=O)N([C@@H](C)CO)C[C@H](C)[C@@H](CN(C)S(=O)(=O)c1ccc(F)cc1)O2	23	1
C[C@@H]1CCCCO[C@H](CN(C)S(=O)(=O)c2ccc(Cl)cc2)[C@H](C)CN([C@@H](C)CO)C(=O)c2cc(NC(=O)NC3CCCCC3)ccc2O1	-27	-11
O=C(C[C@@H]1C=C[C@@H](NS(=O)(=O)c2ccc(F)cc2)[C@@H](CO)O1)NCCN1CCCCC1	7	11
COC(=O)C[C@@H]1CC[C@H](NC(=O)c2ccccc2)[C@H](CO)O1	3	5
COc1ccc(S(=O)(=O)N[C@@H]2CC[C@@H](CC(=O)O)O[C@@H]2CO)cc1	2	6
CCCNC(=O)N1[C@H](CO)[C@H](c2ccccc2)[C@H]1CNC(=O)C1CCC1	-1	-1

Further compounds
SMILES	Vaccinia inh	Vaccinia inh Venus
Cc1noc(C)c1NC(=O)N(C)C[C@H]1OCCCC[C@@H](C)Oc2ccc(NC(=O)C3CCCCC3)cc2C(=O)N([C@@H](C)CO)C[C@@H]1C	13	7
CCC(=O)N1CC2(C1)[C@H](c1ccc(-c3ccccc3OC)cc1)[C@@H](CO)N2C(C)=O	-8	-6
C[C@@H]1CN([C@@H](C)CO)C(=O)Cc2cc(NC(=O)CCC(F)(F)F)ccc2O[C@H]1CN(C)S(=O)(=O)c1ccc(Cl)cc1	-6	-6
COc1ccc(S(=O)(=O)Nc2ccc3c(c2)CC(=O)N([C@@H](C)CO)C[C@H](C)[C@H](CN(C)S(=O)(=O)c2ccc(Cl)cc2)O3)cc1	-11	-8
CO[C@H]1CN(C)C(=O)c2ccc(NC(=O)Nc3cc(Cl)cc(Cl)c3)cc2OC[C@H](C)NC[C@H]1C	?	/
O=C(N[C@@H]1CC[C@@H](CCn2cc(C3CCCC3)nn2)O[C@H]1CO)c1cccnc1	18	15
COc1cccc(C#Cc2ccc([C@@H]3[C@@H](CO)N4C(=O)CN(C(=O)c5ccccc5)C[C@H]34)cc2)c1	?	/
CC(C)NC(=O)Nc1ccc2c(c1)C(=O)N([C@H](C)CO)C[C@H](C)[C@H](CN(C)C(=O)Nc1ccccc1)O2	21	1
Cc1ccc(S(=O)(=O)Nc2ccc3c(c2)C(=O)N([C@@H](C)CO)C[C@@H](C)[C@H](CN(C)Cc2ccncc2)OCCCC[C@H](C)O3)cc1	-5	7
COc1cccc(NC(=O)N2CC3(C2)[C@H](c2ccccc2)[C@H](CO)N3C(=O)C2CCCC2)c1	-5	1
C[C@H]1CN([C@@H](C)CO)C(=O)c2cc(-c3cccnc3)cnc2O[C@@H]1CN(C)C(=O)NC1CCCC1	22	4
Cc1ccc(S(=O)(=O)Nc2ccc3c(c2)C(=O)N([C@H](C)CO)C[C@H](C)[C@@H](CN(C)S(=O)(=O)c2ccccc2)OCCCC[C@@H](C)O3)cc1	-4	-3
CCNC(=O)[C@H]1[C@H](CO)[C@H]2Cn3c(ccc(-c4ccccc4)c3=O)[C@H]2N1CC	2	10
C[C@@H]1CN([C@H](C)CO)C(=O)c2cc(-c3ccccc3F)cnc2O[C@@H]1CN(C)C(=O)NC1CCCCC1	4	5
CC(C)CC#Cc1cnc2c(c1)C(=O)N([C@H](C)CO)C[C@@H](C)[C@@H](CN(C)C(=O)Cc1ccccc1)O2	-15	-22
O=C(c1cccc(F)c1)N1CC(=O)N2[C@H](C1)[C@H](c1ccc(C#Cc3ccc(F)cc3)cc1)[C@@H]2CO	?	/
COCC#Cc1cnc2c(c1)C(=O)N([C@H](C)CO)C[C@@H](C)[C@H](CN(C)C(=O)Cc1ccncc1)O2	-2	-3
CN(C)C(=O)C[C@@H]1C=C[C@H](NC(=O)NC2CCCCC2)[C@H](CO)O1	-6	3
CC(C)[C@@H]1COCc2cn(nn2)CC[C@H](C)C(=O)N1	9	6
O=C(NCC[C@@H]1CC[C@@H](NS(=O)(=O)c2ccccc2)[C@@H](CO)O1)c1ccc2c(c1)OCO2	4	18
COc1ccc(NC(=O)Nc2ccc3c(c2)CC(=O)N([C@H](C)CO)C[C@@H](C)[C@@H](CN(C)S(=O)(=O)c2ccc(F)cc2)O3)cc1	-11	2
O=C(C[C@@H]1C[C@@H]2c3cc(NC(=O)c4ccc5c(c4)OCO5)ccc3O[C@@H]2[C@H](CO)O1)NCc1ccccn1	6	7
CN1CCN(C(=O)C[C@H]2CC[C@H]3[C@@H](COC[C@H](O)CN3C(=O)c3ccc(F)cc3)O2)CC1	7	15
C[C@@H]1CCCCO[C@H](CN(C)C(=O)C2CCCCC2)[C@H](C)CN([C@H](C)CO)C(=O)c2cc(NC(=O)c3ccncc3)ccc2O1	2	0
CO[C@@H]1CN(C)C(=O)c2ccc(NS(=O)(=O)c3ccccc3)cc2OC[C@H](C)N(Cc2nccs2)C[C@@H]1C	16	16
COc1cccc(C(=O)Nc2ccc3c(c2)C(=O)N(C)C[C@@H](OC)[C@@H](C)CN[C@@H](C)CO3)c1	6	8
C[C@@H]1CN([C@@H](C)CO)C(=O)c2cc(NS(C)(=O)=O)ccc2O[C@H]1CN(C)C(=O)Nc1ccc(F)cc1	2	10

Entries of single compounds from above.
`CC(C)NC(=O)Nc1ccc2c(c1)C(=O)N([C@H](C)CO)C[C@H](C)[C@H](CN(C)C(=O)Nc1ccccc1)O2` in the list: Vaccinia inh: 21; Vaccinia inh Venus: 1
`CC(C)[C@@H]1COCc2cn(nn2)CC[C@H](C)C(=O)N1` in the list: Vaccinia inh: 9; Vaccinia inh Venus: 6

Assay outcomes: PubChem BioAssay, Broad Institute
